# Bead autofluor = flagged as autofluorescent in microsphere protease counterscreen; AID 624483; compound autofluorescence counterscreen, microsphere flow cytometry; active compounds read high; fluorescence intensity (test concentration not listed); 360,000 compounds, 3.1% hits;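 active = at least 3 SD above the mean of all compounds, about 16000 in these data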;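 note: 100 nL of 1 mM stock went into each well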
# PrP UTR inh = inhibition of PrP 5' UTR reporter expression; AID 488862, 2010; inhibition, % (concentration not given with the values); 340,000 compounds, 0.35% hits; cell-based PrP 5' UTR mRNA reporter, plate reader;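 active = every replicate at 50% or more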;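 note: 0 = median of the neutral control wells; tested in H4 reporter cells; numbers are from one replicate; inactives centre near -14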
# * = called active by the depositor. An excerpt; rates above refer to the full screens.
SMILES,Bead autofluor,PrP UTR inh
C=CS(=O)(=O)N(Cc1ccccc1Br)[C@H](CO)Cc1ccccc1,4145,-18
COc1ccc([C@H]2CC(=O)C=C(c3cc(F)ccc3F)C2)cc1OC,4110,-4
CC(N)Cc1c[nH]c2ccc(O)cc12 (stereo unspecified),6053,-6
CC(=O)c1ccc(NC(=O)COC(=O)Cc2ccsc2)cc1,2930,-11
O=C(C[C@H]1C/C=C\CC[C@@H](Cc2ccc(F)cc2)C(=O)OCCNC1=O)NCCO,4368,28
Cn1c(C(=O)N2CCCC2)cc2c(=O)n(C)c3ccccc3c21,4222,-10
O=C1CCC[C@@H]2Cc3nc4cc5c(cc4cc3[C@@H]3CCN1[C@H]23)OCO5,4308,-37
CC1(C)C(=O)Nc2ccccc2N1C(=O)COC(=O)Cc1ccc(Cl)c(Cl)c1,3869,-5
CCOC(=O)[C@H]1[C@H]2COc3ccc(C)cc3[C@@H]2N2C(=O)c3ccc(C)cc3NC(=O)[C@@]12C,4139,-20
N#Cc1cn(C2OC(CO)C(O)C2O)c2ncnc(N)c12 (stereo unspecified),3665,58*
O=C1NC(=O)C(Cc2ccccc2)(Cc2ccccc2)C(=O)N1,15003,-9
C#CCOCCOCCOCCNc1nc(N2CCN(C(=O)[C@H]([C@@H](C)CC)n3cc(CCCN=C(N)N)nn3)CC2)nc(N2CCN(C(=O)[C@H](Cc3ccc(O)cc3)n3cc(CCO)nn3)CC2)n1,3971,-20
COc1cc(C2c3[nH]c4ccccc4c3CC3COC(=O)N32)cc(OC)c1O (stereo unspecified),3721,59*
COc1ccc(NC(=O)CCC(=O)c2ccc(F)cc2)cc1,3970,-23
COc1cc(OC)c2c(-c3cccc(-c4ccc(C(F)(F)F)cc4)c3)cc(=O)oc2c1,3083,-29
CC/C=C\C/C=C\C/C=C\CCCCCCCC(=O)O,4415,-10
Cc1cn(C2CCCCO2)c(=O)nc1NO (stereo unspecified),3524,14
COC(=O)C1=C(c2ccc(OCc3ccccc3)cc2)C[C@@H]2CC[C@H]1N2C(=O)NC1CCN(Cc2ccccc2)CC1,3135,-4
CC(C)(C)OC(=O)N(Cc1ccccc1)Cc1ccccc1OCc1cccc(NC(=O)C2CC2)c1,3897,4
O=S(=O)(CCNCc1ccco1)NC1CCCCC1,3872,0
O=C1C[C@@H]2c3c(cccc3CN1Cc1ccccc1)C[C@@H](O)[C@H]2O,3897,-1
CCN(CC)c1ccc(N)cc1,4311,3
CC1(C)Cc2noc(N)c2C(C)(C)N1OC(=O)c1ccco1,2313,-12
COc1ccc(NS(=O)(=O)c2cccc(C(=O)N/N=C/c3ccccc3OC)c2)cc1,6083,-23
O=C(OCc1ccccc1)N1CCC2CC1c1cc(Cl)ccc12 (stereo unspecified),3720,7
C#CCOCCOCCOCCNc1nc(N2CCOCC2)nc(N2CCN(C(=O)CCCCCCCCCCNC(=O)[C@@H](CCC(=O)O)n3cc(CCCCCN)nn3)CC2)n1,2845,2
CC[C@H](C)C(N)c1cn(C(CCCN=C(N)N)C(=O)N2CCNCC2)nn1 (stereo partly specified),3851,-11
C[C@H](CO)N1C[C@H](C)[C@@H](CN(C)Cc2ccccc2)Oc2c(NC(=O)C3CC3)cccc2C1=O,2821,14
CC(C)(C)[C@@H]1COC(=O)[C@@H](NC(=O)OCC2c3ccccc3-c3ccccc32)C/C=C\C[C@@H](CC(=O)NCCO)C(=O)N1,3667,-23
O=C1CCN(Cc2ccccc2)C=C1c1ccc(Br)cc1,3912,-6
Cc1ccccc1C(=O)N1[C@@H](C(C)C)COc2cc(Br)ccc2S1(=O)=O,4025,-26
O=C(CF)N(O)c1ccc(C=Cc2ccccc2)cc1,3622,-6
CNS(=O)(=O)c1ccc(CNC[C@H]2O[C@@H](n3cnc(C(N)=O)n3)[C@H](O)[C@@H]2O)cc1,2805,-16
Cc1cc(C(=O)Nc2cccc3c2O[C@H](CN(C)CC2CC2)[C@@H](C)CN([C@H](C)CO)C3=O)n(C)n1,3903,-22
OCC[C@H]1C[C@@H](O)[C@H](O)[C@@]2(Cc3ccccc3CCO2)O1,3351,-10
O=C(Nc1ccn(CCCNCC2CCCO2)c(=O)n1)OCc1ccccc1 (stereo unspecified),3456,-5
C=CC[C@H](CC(=O)N(CCO)Cc1ccccc1)C(=O)N[C@@H](C)COC(=O)[C@@H](CC=C)Cc1ccc(F)cc1,3986,-19
Nc1c(/C=C2/C=CC(=O)C(O)=C2)c(=O)nc2sc(CC(=O)N3CCOCC3)nn12,4171,-1
COC(=O)C1=C(c2ccc3ccccc3c2)C[C@@H]2CC[C@H]1N2C(=O)NCCO,2916,-34
CC(=NNc1ccc2ccccc2n1)c1ccccc1O,3301,67*
CCN(CC)CCSc1nc2c([nH]1)c(=S)n(C)c(=O)n2C,3838,-74
C=CCC[C@@H](Cc1ccc(F)cc1)C(=O)OC[C@@H](NC(=O)[C@H](CC=C)CC(=O)NCCO)C(C)(C)C,3885,13
C=CC1(C)CN(Cc2ccco2)S(=O)(=O)c2c(F)cccc2O1 (stereo unspecified),3469,-21
CCN(C[C@H]1N[C@@](C)(C(=O)OC)[C@H]2C(=O)N(Cc3ccccc3)C(=O)[C@@H]12)S(=O)(=O)c1ccc(C(C)(C)C)cc1,3969,-6
CCCCn1c(N)c(N(C(=O)CSc2nnnn2-c2ccc(C)cc2)C2CCCC2)c(=O)[nH]c1=O,2982,-4
CCC1=C(OC(=O)N(CC)CC)N2C(=O)OC(=NCC3CC3)[C@]2(C)[C@H]2C1=CC[C@H]1C(=O)N(CC(=O)OC)C(=O)[C@H]12,2833,-15
CCOC(=O)c1ncn2c1[C@@H]1CCNC1C(=O)c1cc(OC)ccc1-2 (stereo partly specified),5838,-24
CC(C)(O)c1cc2ccccc2c(=O)o1,3047,0
CC(CCC(=O)NN)C1CCC2C3CCC4CC(O)CCC4(C)C3CCC12C (stereo unspecified),3634,-29
CC1O[C@@H](OC2C(O)C(C)O[C@H](OC(=O)[C@]34CCC(C)(C)C[C@H]3C3=CCC5[C@@]6(C)CC(O)C(O[C@@H]7OC(CO)C(O)[C@@H](O)[C@@H]7O)[C@@](C)(C(=O)O)C6CC[C@@]5(C)[C@]3(CO)CC4)C2O[C@H]2OC(C)[C@@H](O[C@@H]3OCC(O[C@@H]4OC(CO)C(O)[C@H](O)C4O)[C@@H](O)[C@@H]3O)[C@H](O)C2O)C(O)C(O)C1O (stereo partly specified),3759,-20

# Next structures:
SMILES,Bead autofluor,PrP UTR inh
CC(C)(C)OC(=O)N1CCCC(C(=O)Nc2cccc(C(=O)NCCCCc3ccccc3)c2)C1 (stereo unspecified),4051,-23
O=C1C=C(c2ccc3ncccc3c2)C[C@@H](c2ccc(F)cc2)C1,3824,-6
COc1ccc(NC(=O)Nc2ccc3c(c2)C(=O)N([C@H](C)CO)C[C@H](C)[C@@H](CN(C)S(=O)(=O)c2cccs2)O3)cc1,4244,-20
CNC[C@@H]1Oc2c(NS(C)(=O)=O)cccc2C(=O)N([C@@H](C)CO)C[C@H]1C,4051,-21
O=C(Nc1ccccc1Cl)C1C2CCCCC21 (stereo unspecified),4043,-29
Cc1cccc(-c2ccc3c(c2)C2CC3CCN2C)c1 (stereo unspecified),4159,-9
O=C(NCCCc1ccccc1)c1cccc(NC(=O)C2CCC2)c1,4222,-6
CCCn1c(=C(C#N)C#N)s/c(=C2\C=Cc3ccccc3N2CC)c1=O,4549,-4
NNc1cccc(C=Cc2ccccc2)cc1=O,3972,-82
CC(C)(C)OC(=O)N1CCC[C@@H]1CO,5920,-12
Oc1cc2c(cc1O)[C@@H](c1ccccc1)CNCC2,5194,-10
Cc1csc(N2C(=O)C3C4CCC(O4)C3C2=O)n1 (stereo unspecified),4065,-25
C/C=C(\C)C(=O)OC1CC(C)(C)C[C@H]2C3=CC[C@@H]4[C@@]5(C)CCC(O[C@@H]6O[C@@H](C(=O)O)[C@@H](O)C(O[C@@H]7OC[C@H](O)[C@@H](O)[C@@H]7O[C@@H]7OC(CO)C(O)[C@@H](O)[C@@H]7O)C6O[C@@H]6OC(CO)C(O)C(O)C6O)[C@@](C)(CO)[C@@H]5CC[C@]4(C)[C@]3(C)CC(O)[C@@]12CO (stereo partly specified),3710,-12
CC[C@]12C(=O)N(C)C[C@H]([C@@H]3C(=O)N(C)C(=O)[C@@H]31)N2C(=O)c1ccc(Cl)c(Cl)c1,4000,-8
COC(=O)C1=C(c2ccccc2OCc2ccccc2)C[C@@H]2CC[C@H]1N2C(=O)NCCN1CCOCC1,3972,-17
O=C(N/N=C/c1cccnc1)c1ccc2ccccc2c1O,5074,-16
O=c1ccn([C@@H]2O[C@H](CNS(=O)(=O)c3cc4ccccc4s3)[C@@H](O)[C@H]2O)c(=O)[nH]1,3471,9
C=CC(=O)Nc1cccc(Oc2ccnc3[nH]ccc23)c1,3242,-1
C=CC[C@H](CC(=O)NCCO)C(=O)NC[C@@H](OC(=O)[C@H](CC=C)CC(=O)OC(C)(C)C)c1ccccc1,3873,6
COc1ccc(C2CC(=O)Oc3cc(O)ccc32)cc1 (stereo unspecified),3858,-19
NC(=O)c1ncn([C@@H]2O[C@H](CNS(=O)(=O)c3cc(S(=O)(=O)c4ccccc4)cs3)[C@@H](O)[C@H]2O)n1,3621,-1
CCOc1ccccc1C(=O)OCC(=O)Nc1cccc(S(=O)(=O)NC2=NCCCCC2)c1,2972,19
CC12CCC3C(CCCC4CC(=O)CCC43C)C1CCC2O (stereo unspecified),3755,-28
CCN=c1scc(-c2cccs2)n1/N=C/c1cc(OC)ccc1O,2419,-134
CC(=NNc1nc2ccccc2s1)c1ccncn1,3220,-60
COc1c2c(c(CCC(=O)O)c3c1C=CC(C)(C)O3)OC(C)(C)C=C2,5082,-12
CCOc1ccc(NC2=CC(=O)C(=O)c3ccccc32)cc1,3561,-53
Cc1[nH]n(-c2ccc([N+](=O)[O-])cc2)c(=O)c1/C=N/N1CCOCC1,3637,-17
COc1ccc([C@@H]2CC=C(C(=O)O)[C@H](c3ccccc3F)N2S(=O)(=O)c2ccc(C)cc2)cc1OC,3011,-8
COC(=O)C1=C(C)N(Cc2ccccc2)C(=NCc2ccc(OC)cc2)N[C@H]1c1ccccc1,4436,-8
COc1ccc(C(=O)NCCc2ccc(Cl)cc2)cc1S(=O)(=O)N1CCCCC1C (stereo unspecified),2846,-5
Cn1c(=O)c2c(nc(C3CC4C5CCC(C5)C4C3)n2C)n(C)c1=O (stereo unspecified),4492,-20
Cc1cc(NC(=O)COC(=O)Cn2[nH]c(=O)c3ccccc3c2=O)c([N+](=O)[O-])cc1C,3847,-17
Cc1c(CCOC(=O)c2ccc(Cl)cc2Cl)sc[n+]1CC(=O)c1ccccc1,3896,-24
CCc1nn(CC(=O)NCCCN2CCOCC2)c(=O)c2cc3c(OC)cccc3n12,4080,-3
CN(C)/N=C1\C(=O)N(CN2CCN(c3ccccc3)CC2)c2ccccc21,3727,8
O=C(NNS(=O)(=O)c1ccc([N+](=O)[O-])cc1)c1ccccc1,3645,-11
Cc1ccc(C)c(NC(=O)CSc2nc(N)c(NC(=O)c3cccs3)c(=O)[nH]2)c1,4352,-23
C[C@H](CO)N1C[C@H](C)[C@@H](CN(C)S(=O)(=O)c2cccs2)Oc2ccc(NS(=O)(=O)c3ccc(F)cc3)cc2C1=O,3026,-19
C[C@H](CO)N1C[C@H](C)[C@@H](CN(C)C(=O)Nc2ccc(C(F)(F)F)cc2)Oc2ccc(NC(=O)Nc3ccc(C(F)(F)F)cc3)cc2C1=O,3869,-18
CCOC(=O)[C@H]1[C@H]2COc3ccccc3[C@@H]2N2C(=O)CN(CC3CCCO3)C(=O)[C@@]12C (stereo partly specified),4300,3
COC(=O)[C@]12C(=O)NC[C@H](CN1c1ccc(Cl)c(C)c1)N2C,2881,-7
